UUG fidelity: alters start codon recognition fidelity in yeast. S. cerevisiae UUG-firefly luciferase reporter, luminescence/redox ratio. activity score, % at 18.7 µM. actives 0.13% (n = 350,000);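 active = replicate mean at a twofold rise or more, about +100% in these data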;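 note: firefly luciferase made from a UUG start codon reports start codon fidelity; reporter light over untreated wells divided by growth signal over untreated wells; some hits fall short of that in this replicate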
eIF4H FP inh: inhibitors of RNA binding by human eIF4H | Q15056 | inhibition, % at 35 µM | eIF4H fluorescence polarization binding assay | AID 2012 | actives 0.94% (n = 290,000);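 active = 50% or more with normal probe brightness, or confirmed in later tests; inconclusive = above 50% with abnormal brightness, or retests that disagree; inactive = below 50% or failed in later tests; about a fifth of its hits are not listed in these tables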;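 note: calls also rest on retests at 20 µM and on dose response follow-up; 0% = protein and probe with vehicle and 100% = probe without protein; strong numbers were not always called active; many hits fall short of the cut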
Rce1 inhib: blocks yeast Ras-converting enzyme; Q03530; yeast membranes, quenched prenylated peptide cleavage fluorescence; calls only; actives 0.27% (n = 290,000); AID 2563;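 active = fall in fluorescence gain of 50% or more versus controls, with final raw signal at or below 3038400; inconclusive = same 50% fall but final raw signal above 3038400; inactive = fall in fluorescence gain under 50%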;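 note: plate controls were neutral control wells for no effect and wells lacking membranes for full effect; tested at 10 µM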
Target sequence (Q03530 whole entry, looked up): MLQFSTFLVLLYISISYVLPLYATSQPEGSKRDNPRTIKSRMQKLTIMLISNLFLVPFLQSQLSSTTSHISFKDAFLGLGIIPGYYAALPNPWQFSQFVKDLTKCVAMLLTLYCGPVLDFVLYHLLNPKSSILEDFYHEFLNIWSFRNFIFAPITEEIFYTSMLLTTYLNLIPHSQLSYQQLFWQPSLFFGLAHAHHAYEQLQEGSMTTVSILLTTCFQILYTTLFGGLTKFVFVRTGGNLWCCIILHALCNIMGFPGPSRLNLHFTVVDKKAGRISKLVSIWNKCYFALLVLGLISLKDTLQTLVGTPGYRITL
HIV Env fusion: inhibitors of HIV Env-mediated cell fusion; HeLa-JRFL Env/CEM21 cell fusion, luciferase; inhibition, % at 12.3 µM; actives 1.1% (n = 360,000); AID 651610;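 active = mean replicate inhibition score of at least 50 and every replicate individually at or above 50; inconclusive = only one of the two criteria met; inactive = mean below 50 and not all replicates reaching 50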;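 note: 0% = plate neutral controls and 100% = maraviroc near 300 nM; one replicate is shown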
MT1-MMP act inh: blocks activation of human MT1-MMP. actives 0.061% (n = 360,000). HT1080 RFP-PRO-GFP cells, GFP/RFP ratio fluorescence, overnight; percent of plate control window, DMSO zero. GFP/RFP ratio change, % at 20 µM. P50281. AID 651647;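 active = GFP/RFP ratio change of at least 30% with cell ATP level not reduced by more than half and red fluorescence within 50% of control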; note: strong numbers were not always called active
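Test system: HT1080 cells expressing an RFP-PRO-GFP fluorescent reporter construct / Compound dosing: single-point 20 µM compound, 1% DMSO / Schedule: cells overnight before dosing, compound overnight, 37 °C, 5% CO2 / Evaluation: GFP/RFP fluorescence ratio / Control set: DMSO and RFP-L50D-GFP cell wells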
CSC inhib: cancer stem cell inhibition; inhibition, % at 7.5 µM; actives 1.1% (n = 300,000); cancer stem cell-like cells viability, luminescence;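 active = mean at 75% or more and at least half the replicates too; inconclusive = mean and replicates disagree; tested in HMLE shEcad cells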;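 note: 0% = median of negative and 100% = median of positive control wells; the first replicate is given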
PABP FP inh: PABP-poly(A) binding inhibition | PABP-poly(A) RNA binding, fluorescence polarization | inhibition, % at 35 µM | actives 1% (n = 290,000) | AID 2014;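 active = 50% or more with normal probe brightness, or confirmed in later tests; inconclusive = above 50% with abnormal brightness, or retests that disagree; inactive = below 50% or failed in later tests; about a fifth of its hits are not listed in these tables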;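 note: calls also rest on retests at 20 µM and on dose response follow-up; controls were probe without protein and protein plus probe with vehicle; some compounds called inactive have numbers as strong as hits; many hits fall short of the cut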
eIF4H FP inh retest: second read-out of eIF4H FP inh, no call of its own (marks repeat the call); inhibition, %; compound at 20 µM; confirmation average;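 mean of two retest wells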
PABP FP inh retest: second read-out of PABP FP inh, no call of its own (marks repeat the call); inhibition, %; compound at 20 µM; confirmation repeats;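 mean of two retest wells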
MT1-MMP act inh RFP: second read-out of MT1-MMP act inh, no call of its own (marks repeat the call); RFP signal change, %; measured here: RFP expression control read;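 0 = vehicle wells; hits needed this value within 50% of zero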
Starred values were filed as active, the others as inactive; i = inactive; ? = inconclusive; nt = no result given.

Start of the data: the first two compounds as a preview:
SMILES	UUG fidelity	eIF4H FP inh	Rce1 inhib	HIV Env fusion	MT1-MMP act inh	MT1-MMP act inh RFP	CSC inhib	PABP FP inh	others
Clc1ccc2nc(C(Cl)(Cl)Cl)[nH]c2c1	-9	nt	nt	7	-4	2	nt	nt
O=C(O)COc1ccc2c(c1)OCCO2	-15	-10	i	nt	3	4	-14	0

The list itself, from the first entry:
SMILES	UUG fidelity	eIF4H FP inh	Rce1 inhib	HIV Env fusion	MT1-MMP act inh	MT1-MMP act inh RFP	CSC inhib	PABP FP inh	others
Clc1ccc2nc(C(Cl)(Cl)Cl)[nH]c2c1	-9	nt	nt	7	-4	2	nt	nt
O=C(O)COc1ccc2c(c1)OCCO2	-15	-10	i	nt	3	4	-14	0
CCOC(=O)C1CCCCN1C(=O)c1oc2c(Cl)cc(C)cc2c1C (stereo unspecified)	-8	-1	i	10	1	3	11	8
Cc1ccc(SC(CC(=O)c2ccc(C)cc2)C(=O)O)cc1 (stereo unspecified)	-29	5	i	nt	-3	-1	8	-6
COC(=O)c1cc(S(=O)(=O)N2CCC(C)CC2)ccc1F	-5	2	i	5	-4	-3	0	-6
COc1ccc(C)cc1S(=O)(=O)N(C)CC(=O)N1CCCC1	-3	-9	i	-21	0	-1	-5	4
CCN(CCCNC(=O)C1CCN(S(=O)(=O)c2cnc[nH]2)CC1)c1ccccc1	-4	-8	i	25	-2	0	-8	0
CCNS(=O)(=O)c1cc(-c2nnc(OC)c3ccccc23)ccc1C	-7	0	i	12	-1	-2	-12	8
CCOc1ccc(N(C(=O)c2snc(C(N)=O)c2N)C(C(=O)NCC2CCCO2)c2ccco2)cc1 (stereo unspecified)	14	-7	nt	14	2	4	-5	2
CCCC(C)NC(=O)Cn1c(=O)c2c(ncn2CCC(C)C)n(Cc2ccccc2)c1=O (stereo unspecified)	-11	-2	i	4	-3	-4	-4	8
CCOC(=O)c1ccc(NC2c3ncccc3C(=O)N2Cc2ccc(F)cc2)cc1 (stereo unspecified)	-8	-7	i	93*	3	0	-3	-1
O=C(O)CSc1c2c(nc3cc(C(=O)Nc4cccc(C(F)(F)F)c4)ccc13)CCC2	-2	-3	i	4	-1	3	7	22
Cc1ccc(SCC(=O)OCC(=O)NCC2CCCCC2)cc1C	-5	nt	i	3	0	2	-13	nt
C=C(C)Cn1c(-c2cccs2)n[nH]c1=S	-12	-6	i	7	4	2	nt	5
CN(C)C(=O)C[n+]1cccc(/C=N/O)c1	-7	6	i	-3	-8	1	-17	-9
CC1=C([N+](=O)[O-])C(c2ccccc2C(F)(F)F)NC(=O)N1C (stereo unspecified)	nt	11	i	-6	0	0	-13	17
CC(C)(C)c1nc(-c2ccccc2)nc2c1OCCC2	-8	nt	i	-12	3	0	50	nt
Cc1nc(COc2ccc(C(=O)Nc3ccccc3N3CCOCC3)cc2)cs1	-13	3	i	2	1	-2	8	5
CCOC(=O)COc1ccc(Br)cc1/C=C1\SC(N)=NC1=O	-4	nt	i	-2	-1	0	5	nt
Cc1ccc(S(=O)(=O)N2CCN(S(C)(=O)=O)C2C)cc1 (stereo unspecified)	nt	nt	i	2	-1	-1	-23	nt
Cc1ccc(S(=O)(=O)N(C)Cc2nc(-c3ccncc3)no2)cc1	-17	11	i	74	0	-3	-1	6
COc1ccccc1NC(=O)N1c2ccccc2NC(=O)CC1C (stereo unspecified)	-14	-4	i	-1	-1	0	-4	10
COc1ccc(-c2csc(NC(=O)CSc3nnc(Nc4ccccc4C)s3)n2)cc1	nt	-7	i	-1	-5	-3	3	0
N/C(=N\OC(=O)c1cccc2ccccc12)c1ccccn1	-53	-7	i	-103	-1	1	-2	-8
O=C(NN1CCOCC1)c1ccccc1F	-13	5	i	-2	-2	3	-19	-9
CCOC(=O)c1ccc(NC(=O)CSc2nc(C)cc(=O)[nH]2)cc1	-12	81*	i	nt	-1	2	-2	18*	eIF4H FP inh retest=77*;PABP FP inh retest=70*
CCCCNC(=O)CSc1nc2n[nH]c(C)c2c(=N)n1-c1cccc(Cl)c1C	-17	-5	i	7	7	-5	4	-6
Cc1cccc(CSc2ncc(CO)n2C)c1	-20	-4	i	nt	3	5	nt	-2
CCNC(=S)N1CCN(CC(=O)Nc2ccc(Br)cc2)CC1	-15	-3	i	11	4	3	3	-6
CCOc1ccc(N2CC(C(=O)Nc3ccccc3F)CC2=O)cc1 (stereo unspecified)	-14	-4	i	-23	1	3	nt	6
C#CCSc1[nH]c(=O)cc(C)c1C#N	nt	-3	i	0	0	1	-10	4
Cc1cc(NC(=O)Cn2c(C)nc3ccccc3c2=O)ccc1Br	-13	-1	i	nt	-5	0	5	-5
CCOC(=O)CC/C(C)=N\N=C1\SC(CC(=O)O)C(=O)N1c1ccccc1 (stereo unspecified)	nt	6	i	-7	-1	2	7	2
CC(=O)N1CN(S(=O)(=O)c2ccc(C)cc2)CC1C (stereo unspecified)	-21	-6	i	nt	0	3	-5	1
S=c1[nH]nc(-c2cccc(Cl)c2)n1/N=C/c1ccc(-c2ccccc2Br)o1	-19	17	i	2	9	2	15	4
O=C(CSc1nc2ccccc2c(=O)n1CCCO)N1CCc2ccccc21	-20	-8	i	-4	-1	1	-5	1
O=C(COC(=O)CNS(=O)(=O)c1ccc(F)c(F)c1F)NC1CC1	-4	nt	i	1	-1	2	-1	nt
CN(CC(=O)Nc1ccc(OC(F)F)cc1)S(=O)(=O)/C=C/c1ccccc1	-6	nt	nt	nt	0	3	7	nt
COc1ccc(-c2csc3ncnc(N4CCN(S(=O)(=O)c5cccc(F)c5)CC4)c23)cc1	nt	nt	i	23	-9	-3	10	nt
Cc1ccccc1-n1ccnc1SCC(=O)NC1CCCC1	-11	-6	i	-3	3	-1	-15	6
CN(C)C(=O)CN1C(=O)NC(c2ccccc2)(c2ccccc2)C1=O	-4	8	i	-2	-4	0	-2	5
CSC1=NCCN1C(=O)C12CC3CC(CC(C3)C1)C2	nt	-9	i	16	1	-6	-7	-12
COc1ccc(Cl)cc1C(=O)NCCCSc1ccccc1	-6	16	i	4	3	4	-5	2
O=C(c1ccco1)N1CCN(C(=O)C2CCN(S(=O)(=O)c3cccs3)CC2)CC1	26	-2	i	-26	3	4	-12	-5
Nc1ncnc2c1ncn2[C@@H]1O[C@H](CNC(=O)[C@@H](N)Cc2ccc(C(F)(F)F)cc2)[C@@H](O)[C@H]1O	1	nt	nt	3	1	5	nt	nt
Cc1ccc(S(=O)(=O)Nc2cc3c4c(c2)CCC(=O)N4CCC3)cc1	nt	nt	i	-3	9	-1	-16	nt
CCOC(=O)c1nn(-c2ccc(OC)cc2)c(=O)c2c(N)scc12	-13	-6	i	nt	7	4	-4	4
Nc1ccc2nc(SCc3ccccc3F)sc2c1	nt	5	i	-172	0	1	30	-3
CC(C)c1ccc(OCC(=O)Nc2ccc(S(=O)(=O)Nc3ccccn3)cc2)cc1	-12	2	i	7	6	4	1	3
Cc1ccc(C(=O)Nc2cccnc2)cc1S(=O)(=O)N1CCCCC1	nt	-6	i	-2	0	0	1	-8
O=C(CCC(=O)NNC(=O)COc1ccc(Br)cc1Br)NCc1ccccc1	nt	2	i	6	0	-2	-10	2
CCNc1nc(Nc2ccc(C)c(Cl)c2)c2cnn(C)c2n1	-20	0	i	-35	-6	-9	20	16
COc1ccc(S(=O)(=O)NC(=O)C2(C)CCN2C(=O)C2(c3ccccc3)CCCC2)cc1 (stereo unspecified)	12	nt	nt	-23	-2	1	nt	nt
CC(OC(=O)c1ccccc1)C(=O)NCc1ccco1 (stereo unspecified)	-12	nt	nt	nt	0	4	-5	nt
CCOC(=O)c1ccc2c(c1)NC(=O)C(N1CCN(c3ccc(OC)cc3)CC1)S2 (stereo unspecified)	-8	4	i	-32	-6	-16	17	-10
CCOC(=O)C[C@H]1c2ccccc2S(=O)(=O)N1c1cccc(OC)c1	-20	nt	i	3	4	-4	10	nt
NS(=O)(=O)c1ccc(CNC(=O)/C=C/c2ccc(Cl)c(Cl)c2)cc1	nt	-4	i	23	4	-4	-2	-2
COc1ccc(NC(C)C(=O)N2CCN(Cc3ccccc3)CC2)cc1 (stereo unspecified)	-14	13	i	-2	1	-1	3	12
CNS(=O)(=O)c1cc(-c2nnc(Nc3ccc(CC(N)=O)cc3)c3ccccc23)ccc1C	-20	0	i	-7	2	-3	2	-2
CCc1ccc(N2CC34C=CC(O3)C(C(=O)OC(C)C)C4C2=O)cc1 (stereo unspecified)	17	-2	i	-26	2	7	nt	15
Remaining list, next part.
SMILES	UUG fidelity	eIF4H FP inh	Rce1 inhib	HIV Env fusion	MT1-MMP act inh	MT1-MMP act inh RFP	CSC inhib	PABP FP inh	others
CC(C)Oc1cccc(C(=O)C2CCCN(Cc3cnc(N4CCCC4)s3)C2)c1 (stereo unspecified)	nt	-8	i	22	11	-6	-11	7
CCN(CC)c1ccc(C(=O)NNC(=O)c2ccc3c(=O)n4c(nc3c2)CCC4)cc1	-14	nt	nt	nt	5	5	-13	nt
OCCNc1nc(N2CCN(Cc3ccccc3)CC2)nc2ccccc12	-16	-8	i	-62	3	3	2	22
COc1cccc(C(=O)Nc2cc(OC)ccc2NC(=O)c2ccco2)c1	-12	3	i	11	-4	0	-5	3
O=C(COC(=O)c1cn(-c2ccccc2)nc1-c1cccnc1)NC1CC1	nt	17	i	18	-5	0	8	0
O=c1oc2ccccc2n1CCc1ccccc1	-11	-4	i	-130	-3	1	4	16
CC1CN=C(N(C(=O)Nc2ccccc2)c2ccc(S(=O)(=O)N3CCOCC3)cc2)S1 (stereo unspecified)	-16	2	i	nt	-2	-7	-2	7
Cc1ccc(Nc2ncnc3sc(C)c(C)c23)cc1	-14	-4	i	nt	1	-1	41	-6
CCOC(=O)N1CCN(CCC(=O)c2ccc(Cl)cc2)CC1	-16	1	i	nt	-2	5	?	17
CN(C(=O)CN1C(=O)/C(=C/c2ccc(Cl)cc2)SC1=S)C1CCS(=O)(=O)C1 (stereo unspecified)	1	4	i	55*	4	-2	5	-7
c1coc(-c2ccc3nncn3c2)c1	-12	nt	nt	-37	-1	12	nt	nt
Cc1[nH]c2ccc(C(=O)OC(C)C(=O)NCc3ccccc3)cc2c1C (stereo unspecified)	-11	nt	i	nt	-7	-9	-18	nt
Cc1ccc(S(=O)(=O)N2CCOCC2)c(C)c1-n1cnnn1	-16	3	i	nt	-6	7	-14	-5
CC(C)C[C@H]1CN=C(N(C)C)N1CCCCc1ccccc1	-16	nt	nt	4	0	-1	11	nt
CC(=O)NC(Cc1c[nH]c2ccccc12)C(=O)N1CCN(S(=O)(=O)c2ccccc2)CC1 (stereo unspecified)	-2	nt	nt	nt	-2	2	-20	nt
O=C(Nc1ccc(Cl)c(Cl)c1)C1C2C=CC3(O2)C1C(=O)N(CCN1CCCCC1)C3C(=O)NC1CCCCC1 (stereo unspecified)	23	0	i	1	4	2	3	-3
Nc1nc(CSC(=S)N2CCOCC2)nc(Nc2ccc(F)cc2)n1	-12	0	i	2	-1	0	17	21
Oc1ccc(/C=N/n2c3ccccc3c3ccccc32)cc1	-26	0	i	nt	2	-4	49	-12
O=C(NC(=O)c1c(Cl)cccc1Cl)Nc1ccc(Oc2cccnc2)nc1	1	-3	i	-10	5	-1	11	-4
O=C(NCc1ccc(F)cc1)c1ccc(CS(=O)(=O)Cc2ccc(F)cc2)o1	5	-1	i	nt	3	-8	1	-10

Source: PubChem BioAssay
